Screening results as filed in PubChem BioAssay.
Six1-Eya2 inh = blocks human Six1 binding to Eya2; Q15475+O00167; AlphaScreen GST-Six1/His-Eya2 binding, biochemical; hits give low values; control for the full effect not named in the record; activity change, % (test concentration not listed); 360,000 compounds, 0.56% hits; in the data active = activity change below about -65%; inconclusive = about -30% to -65%; inactive = above about -30%; further: on the % scale 0 is the no-effect control and ±100 the full control effect
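AlphaScreen with GST-Six1 and His-Eya2 (5X mix: 250 nM and 500 nM), glutathione donor and nickel acceptor beads; buffer 50 mM Tris pH 8.0, 300 mM NaCl, 1 mM TCEP; 1 h at 37 C in the dark.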
D2 ag = human D2 receptor agonism in beta-arrestin assay. P14416. DiscoveRx PathHunter D2 beta-arrestin, luminescence, 90 min; 100% = 57 uM dopamine signal. activation, % (no concentration beside the values). 360,000 compounds, 0.084% hits. AID 624465; in the data active = activation above about 40%; inconclusive = about 15% to 40%; inactive = below about 15%; further: compound concentration not given in the record; the text of the record calls up to 30% inactive
Target sequence (P14416 whole entry, looked up): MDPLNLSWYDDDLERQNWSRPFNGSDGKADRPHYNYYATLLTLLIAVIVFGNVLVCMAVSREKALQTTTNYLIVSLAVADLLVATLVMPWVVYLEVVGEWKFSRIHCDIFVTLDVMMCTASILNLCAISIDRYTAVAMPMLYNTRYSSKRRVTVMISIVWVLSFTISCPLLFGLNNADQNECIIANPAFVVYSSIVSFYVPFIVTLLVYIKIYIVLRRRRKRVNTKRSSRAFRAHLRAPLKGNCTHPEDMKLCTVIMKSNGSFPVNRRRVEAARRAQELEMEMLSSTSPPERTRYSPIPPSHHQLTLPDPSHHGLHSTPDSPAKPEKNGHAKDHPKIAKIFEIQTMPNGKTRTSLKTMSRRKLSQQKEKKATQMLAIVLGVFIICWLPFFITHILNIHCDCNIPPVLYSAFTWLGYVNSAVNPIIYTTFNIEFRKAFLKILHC
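DiscoveRx PathHunter D2 beta-arrestin cells (2,100/well) attached overnight, then compound-stimulated 90 min at 37 C in HBSS/10 mM HEPES/0.1% Tween-20 buffer; beta-galactosidase complementation read by luminescence after 1 h at ambient temperature. Dopamine 57 uM final (EC100) as control.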
D2 PAM = positive allosteric modulators of human D2 dopamine receptor. P14416. DiscoveRx D2 beta-arrestin cells, luminescence, 90 min; 100% = 57 uM dopamine signal. potentiation, % (test concentration not listed). 360,000 compounds, 0.23% hits. AID 624464; active = potentiation of 50% or more; inconclusive = 30% to 50%; inactive = 30% or less;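 further: compound concentration not given in the record; tested on top of an EC20 dose of dopamine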
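PathHunter beta-arrestin assay in DiscoveRx D2 cells. Compounds were added with an EC20 of dopamine (50 nM final) for 90 min at 37 deg C. Luminescence was read 1 h after detection reagent, with 57 uM dopamine as the EC100 control.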
TRPML1 blocker = human mucolipin-1 channel inhibition; Q9GZU1; TRPML1-inducible cells, Ca2+ dye fluorescence, FDSS; hits give low values; inhibition of EC80 agonist-evoked calcium signal; activity change, negative = inhibition, % (test concentration not listed); 390,000 compounds, 0.02% hits; in the data active means activity change below about -50%; inconclusive means about -30% to -50%; inactive means above about -30%;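 further: stimulus is agonist 54-4 at its EC80 concentration; on the % scale 0 is the no-effect control and ±100 the full control effect; compound concentration not given in the record; the text of the record puts the active cut at -80%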
Target sequence (Q9GZU1 whole entry, looked up): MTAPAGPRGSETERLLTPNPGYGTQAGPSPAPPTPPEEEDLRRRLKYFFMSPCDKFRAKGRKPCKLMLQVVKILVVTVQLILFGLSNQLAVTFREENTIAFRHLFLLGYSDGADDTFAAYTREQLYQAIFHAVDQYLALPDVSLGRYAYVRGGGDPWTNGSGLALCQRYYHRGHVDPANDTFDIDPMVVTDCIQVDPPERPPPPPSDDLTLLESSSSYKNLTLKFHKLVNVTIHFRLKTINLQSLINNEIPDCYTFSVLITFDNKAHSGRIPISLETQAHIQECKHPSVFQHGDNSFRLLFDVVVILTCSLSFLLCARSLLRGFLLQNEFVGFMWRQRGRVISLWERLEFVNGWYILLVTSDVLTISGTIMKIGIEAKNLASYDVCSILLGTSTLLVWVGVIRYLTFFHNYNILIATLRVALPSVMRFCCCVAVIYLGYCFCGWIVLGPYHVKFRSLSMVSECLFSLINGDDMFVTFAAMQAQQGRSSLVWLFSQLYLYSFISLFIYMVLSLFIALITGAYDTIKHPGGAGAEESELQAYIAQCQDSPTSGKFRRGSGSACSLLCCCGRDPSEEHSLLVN
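Calcium fluorescence in TRPML1-DL cells induced overnight with Tet: a 110 s read after compound pin addition, then a 110 s antagonist read after challenge with 54-4 at 4 uM final (EC80).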
PINK1 modulator = modulators of PINK1 expression | PINK1 immunofluorescence, high-content cytometry, 24 h | Potency, µM (series often up to 76.6 µM), for inactives: top-dose activation (PINK1 increase), usual class: activators | 410,000 compounds, 0.2% hits | AID 624263; active = well fitted activation curve with a large enough effect; inconclusive = small, poorly fitted or top-dose-only effect; inactive = flat fitted curve, though single readings scatter; cell line not stated here;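 further: potency means the concentration at half of the fitted maximal effect; % of control where 0% means no effect; nearly all actives have a fitted effect of over 65% in size; a mitochondrial uncoupler was the plate control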
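Compound titrations (5 concentrations, 24 h) on a stable cell line; DMSO and CCCP controls. Endpoint: fixed-cell PINK1 immunofluorescence with mitochondrial, cell and nuclear markers, scanned by microplate cytometer.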
TRPML1 ag = activates the human TRPML1 channel | Q9GZU1 | TRPML1-expressing cells, Ca2+ dye fluorescence, FDSS; host cell line not named in the record; reference of the full effect not given here | activation, % (no concentration beside the values) | 410,000 compounds, 0.12% hits; in the data active = activation above about 50%; inconclusive = about 30% to 50%; inactive = below about 30%; further: 0% is about no effect; the text of the record puts the active cut at 80%
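Tet-induced TRPML1-DL cells, 1,500 per well, cultured overnight, were loaded with a no-wash Ca2+ dye for 45–90 min. Calcium fluorescence was recorded on the FDSS for 110 s after compound addition, before the EC80 agonist (4 uM 54-4) was added.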
The depositor's hits bear a star; ? = inconclusive; nt = no result given; & = joins results of further samples.

SMILES | Six1-Eya2 inh | D2 ag | D2 PAM | TRPML1 blocker | PINK1 modulator | TRPML1 ag
COC(=O)C1C(c2ccccc2)NC(=O)NC1(O)C(F)(F)Cl (configuration not stated) | 9 | 2.7 | -4 | -1 | -0.3% | 0.0
O=S(=O)(Cc1ccccc1)C(c1ccccc1)S(=O)(=O)Cc1ccccc1 | -5 | -0.5 | -10 | 3 | 1.7% | -0.3
C=CCOc1cccc(C2C(C(=O)c3ccc(C)o3)=C(O)C(=O)N2Cc2ccncc2)c1 (configuration not stated) | 1 | -3.7 | 0 | -5 | 1.6% | -0.9
COc1cc(CCC(=O)Nc2cnc3ccccc3c2)cc(OC)c1OC | -6 | -1.9 | -8 | -3 | -0.1% | 2.0
Cc1ccccc1NC(=S)NNC(=O)c1ccncc1 | -3 | -5.6 | -11 | 33 | 5.1% | 0.8
Cc1cc2cc(CN(Cc3cccs3)C(=S)NCC3CCCO3)c(=O)[nH]c2cc1C (configuration not stated) | -24 | -1.6 | -13 | 34 | 0.8% | 1.8
O=S1(=O)CCN2C=Nc3sc4c(c3C2=N1)CCCC4 | -10 | -0.8 | -20 | 0 | -1.5% | -0.2
CC(C)c1ccc(C2C(C#N)=C(N)Oc3c2oc(CO)cc3=O)cc1 (configuration not stated) | 8 | 0.0 | -1 | -3 | 0.9% | -0.4
O=Cc1cn(-c2ccccc2)nc1-c1ccc(F)cc1 | -1 | -0.3 | -1 | 0 | 0.5% | 0.3
Cc1c(O)ccc(/C=N/Nc2nc(-c3cccnc3)nc3ccccc23)c1O | -68* | ? | -5 | 14 | -1.1%&27% | 0.9&-0.9
Nc1nnnn1/N=C/c1cc([N+](=O)[O-])ccc1O | -66* | -7.1 | -17 | 4 | -0.1% | -0.5
COc1cccc(/C=C/c2onc(C)c2S(=O)(=O)N2CCC(C(=O)N3CCCCC3)CC2)c1 | nt | nt | nt | -28 | 0.7% | 2.5
CCn1c(=S)[nH]c2sc3c(c2c1=O)CCCC3 | -3 | 7.5 | -61 | nt | -0.5% | nt
CNC(=O)c1cn2c3c(ccc(Cl)c3c1=O)OC(C)C2 (configuration not stated) | 22 | 0.2 | -1 | -13 | 0.5% | -0.4
Cc1ccc(S(=O)(=O)N2CCN(C(=O)COC(=O)CCOc3cc(C)ccc3C)CC2)cc1 | 7 | -1.4 | -1 | -11 | -1.7% | -0.1
CCN(CC)CCOc1nnc(-c2ccc(C)cc2)c2ccccc12 | 3 | -3.6 | -12 | 1 | 0.2% | -0.2
Cc1cc(C)n(CC(=O)N2CCCC(N3CCN(c4ccc(F)cc4)CC3)C2)n1 (configuration not stated) | 8 | -4.4 | -1 | -22 | -1.0% | 0.0
O=C1CN(c2nc3ccccc3n3cnnc23)CC(=O)N1CCc1ccccc1 | -3 | -6.3 | 3 | -1 | 0.3% | -1.5
Cc1ccc(OCC(=O)N2CCC(C)CC2)c([N+](=O)[O-])n1 | 2 | -2.7 | -5 | 4 | -0.5% | 4.2
CCOC(=O)N1CCN=C1SCc1ccc(C(F)(F)F)cc1 | 18 | -0.2 | -4 | 20 | 0.5% | 0.7
CC1CN(C(=O)Nc2cccc(C(F)(F)F)c2)CC(C)O1 (configuration not stated) | -1 | -2.2 | -8 | 15 | 1.8% | 2.9
O=C1c2ccccc2C(=O)N1Nc1ccccc1 | 7 | -3.8 | -3 | 9 | -0.2% | -0.4
COCCNC(=O)C(C)OC(=O)c1cc2sccc2n1C (configuration not stated) | -2 | 0.6 | -4 | 37 | 1.9% | -0.3
Cc1ccc(NC(=O)C2=CC(c3ccc4c(c3)OCO4)=NS(=O)(=O)N2C)cc1 | nt | nt | nt | 35 | 0.5% | 0.9

With a hit mark in Six1-Eya2 inh, of those listed so far:
SMILES	Six1-Eya2 inh	D2 ag	D2 PAM	TRPML1 blocker	PINK1 modulator
Cc1c(O)ccc(/C=N/Nc2nc(-c3cccnc3)nc3ccccc23)c1O	-68*	?	-5	14	-1.1%&27%
Nc1nnnn1/N=C/c1cc([N+](=O)[O-])ccc1O	-66*	-7.1	-17	4	-0.1%

Other compounds follow.
SMILES | Six1-Eya2 inh | D2 ag | D2 PAM | TRPML1 blocker | PINK1 modulator | TRPML1 ag
CCOc1ccc(N(Cc2ccccc2)C(=O)c2nc(SC)ncc2Cl)cc1 | nt | nt | nt | 2 | 1.9% | 2.0
S=C1NCN(Cc2ccccc2)CN1C1CCCCC1 | -5 | 0.1 | 1 | -2 | 1.4% | -0.2
O=C(COC(=O)CCCOc1ccccc1)NNC(=O)c1ccc([N+](=O)[O-])cc1 | -4 | 0.0 | -1 | 34 | -1.4% | -0.2
COc1cn(CC(=O)Nc2cc(C)cc(C)c2)c(CN2CCCCC2)cc1=O | nt | nt | nt | -3 | 0.6% | 1.5
CC1(C)Cc2nc3oc4c(NCc5ccccc5)ncnc4c3cc2CO1 | -2 | 1.2 | -8 | 5 | 14% | 0.6
O=C(c1cc2ccccc2oc1=O)N1CCN(Cc2ccc3c(c2)OCO3)CC1 | 0 | 0.1 | -19 | 8 | -0.1% | -0.9
Cc1ccc(-n2c(-c3ccccc3)c[nH]c2=S)cc1 | -15 | 1.6 | -4 | -2 | -2.8% | -2.0
Cc1cccc(C)c1NC(=O)COC(=O)CN1C(=O)C2CCCCC2C1=O (configuration not stated) | 9 | -3.2 | -4 | -3 | 1.8% | -0.5
Cc1cc([N+](=O)[O-])ccc1NC(=O)c1sc2ncn(CC(=O)N3CCOCC3)c(=O)c2c1C | 3 | 3.2 | -8 | 9 | 0.5% | 0.6
COc1cccc(OC)c1C(=O)Nc1ccc2nc(C)c(C)nc2c1 | 3 | -0.4 | -1 | -8 | 0.0% | 0.3
CC(=O)N/C(=C\c1ccccc1)C(=O)OCC(=O)NC(C)C12CC3CC(CC(C3)C1)C2 (configuration not stated) | -2 | -1.3 | -2 | 17 | 4.4% | 2.2
Cc1nc(Sc2ccccc2)c(C#N)cc1-c1ccccc1 | 24 | -0.2 | -13 | 78 | ? | 1.8
O=C(c1ccccc1)N1CCN(C(=O)c2nn3c(C(F)(F)F)cc(-c4ccco4)nc3c2Br)CC1 | -2 | -0.3 | -10 | -6 | 0.2% | 2.2
COc1ccc(CC(N)c2csc(NC(=O)C(c3ccccc3)c3ccccc3)n2)cc1 (configuration not stated) | 1 | 4.2 | -1 | nt | -1.2% | 1.1
CN(C)S(=O)(=O)c1ccc(N2CCCC2=O)c([N+](=O)[O-])c1 | 2 | -3.8 | -4 | -20 | 0.0% | 0.4
COc1ccc(CC(NC(C)=O)C(=O)N2CCN(C(=O)Nc3cccc(Cl)c3)CC2)cc1OC (configuration not stated) | -2 | -3.0 | -6 | 0 | -3.1% | -0.4
O=C(Nc1nnc(C2=COCCO2)o1)c1cccc(F)c1 | -17 | -6.8 | -18 | -30 | -0.8% | 1.1
CCC(C(=O)Nc1nc(C)c(C)s1)c1ccccc1 (configuration not stated) | -9 | -2.3 | -3 | 2 | 7.5% | 0.4
COc1ccc(C)cc1NC(=O)c1cc(S(=O)(=O)N2CCC(C)CC2)ccc1F | nt | nt | nt | -15 | 0.5% | -0.4
CS(=O)(=O)N1CCC(C(=O)NCc2ccc(F)cc2Cl)CC1 | 29 | -0.6 | 2 | -21 | nt | 0.8
O=C(Nc1cc(S(=O)(=O)Nc2ccc(Cl)cc2)ccc1N1CCCCC1)c1ccc(F)cc1 | -19 | -1.8 | -2 | 2 | ? | 5.9
COc1ccccc1N1CCN(C(CNS(=O)(=O)c2ccccc2)c2cccnc2)CC1 (configuration not stated) | -5 | 1.0 | -28 | 3 | 1.5% | 0.7
CC(C)CCn1c(SCC(=O)NC2CCS(=O)(=O)C2)nc2cc(Cl)ccc2c1=O (configuration not stated) | 7 | -2.4 | 2 | 1 | 20% | 0.2
CCn1c(CC(=O)Nc2ccc(Cl)c(Cl)c2)nnc1SCc1ccc(C)cc1 | 5 | 1.2 | 11 | -12 | 3.2% | 0.4

In another format: results already given
SMILES,Six1-Eya2 inh,D2 ag,D2 PAM,TRPML1 blocker,PINK1 modulator,TRPML1 ag
COc1ccc(CC(N)c2csc(NC(=O)C(c3ccccc3)c3ccccc3)n2)cc1 (configuration not stated),1,4.2,-1,nt,-1.2%,1.1
CN(C)S(=O)(=O)c1ccc(N2CCCC2=O)c([N+](=O)[O-])c1,2,-3.8,-4,-20,0.0%,0.4
COc1ccc(CC(NC(C)=O)C(=O)N2CCN(C(=O)Nc3cccc(Cl)c3)CC2)cc1OC (configuration not stated),-2,-3.0,-6,0,-3.1%,-0.4
O=C(Nc1nnc(C2=COCCO2)o1)c1cccc(F)c1,-17,-6.8,-18,-30,-0.8%,1.1

Continued.
SMILES | Six1-Eya2 inh | D2 ag | D2 PAM | TRPML1 blocker | PINK1 modulator | TRPML1 ag
COc1ccc(C2c3c(n(C)c4ccccc34)C(=O)N2CC(=O)Nc2ccc(C)c(Cl)c2)cc1 (configuration not stated) | nt | nt | nt | 0 | -0.2% | -0.3
O=C(Nc1cccc([N+](=O)[O-])c1)c1ccc2snnc2c1 | 10 | -1.2 | -16 | 10 | -0.1% | 0.0
O=C(O)c1ccccc1NS(=O)(=O)c1ccc(NN=Cc2ccccc2F)c([N+](=O)[O-])c1 | -17 | 10 | -3 | 4 | 1.9% | 3.3
CS(=O)(=O)Nc1ccc(-c2cn3c(n2)SCC3)cc1 | 6 | -4.1 | -2 | -5 | 1.2% | 0.6
CCOc1ccc(NC(=O)CC2C(=O)N(c3cccc(C)c3)C(=O)N2Cc2cccs2)cc1 (configuration not stated) | nt | nt | nt | -11 | 4.8% | -0.4
COc1cccc(Nc2nc(-c3ccccc3)c3cc(C)ccc3n2)c1 | nt | nt | nt | 57 | 2.2% | 1.7
Cc1c(Br)cnn1C(C)C(=O)N1CCN(c2ccc(F)cc2)CC1 (configuration not stated) | 1 | 1.5 | -7 | 17 | -0.4% | 0.1
C/C=C/C(=O)N1c2ccc(C)cc2C(C)=CC1(C)C | -1 | -2.9 | -13 | 20 | 5.6% | 1.6
CCOC(=O)c1cnc(-n2nc(C)cc2C)nc1Oc1ccc(C(=O)OC)cc1 | -1 | -17 | -5 | -2 | 4.3% | 1.4
CCOc1ccc(C2c3c(oc4ccc(C)cc4c3=O)C(=O)N2CCCN2CCOCC2)cc1 (configuration not stated) | nt | nt | nt | -10 | -1.3% | -0.4
CCOC(=O)c1sc(NC(=O)c2nc(SCC)ncc2Cl)c(C(=O)OCC)c1C | nt | nt | nt | -1 | 1.4% | -0.2
Cc1nnc(SCC(=O)Nc2nonc2C)s1 | -5 | -4.9 | -7 | -23 | 2.5% | 0.7
COCCNC(=O)c1ccc2nc(Cc3ccc(OC)c(OC)c3)oc2c1 | -1 | -4.9 | 2 | -5 | 1.6% | -0.5
COc1ccccc1OCC(=O)N1CCN(C(=O)c2ccco2)CC1 | 8 | 1.8 | -12 | -15 | 3.8% | -0.2
CC(N)c1csc(Nc2ccc(S(C)(=O)=O)cc2)n1 (configuration not stated) | -8 | -1.9 | -1 | nt | 0.3% | -0.7
CCN(CC)S(=O)(=O)c1ccc(N2CCOCC2)c(NS(=O)(=O)c2ccc(Cl)s2)c1 | 6 | 0.9 | -7 | 2 | -0.7% | -1.0
